Bioassay records (PubChem)
CtBP-E1A inh – inhibitors of CtBP/E1A interaction; AlphaScreen GST-E1A/His-CtBP binding, 1536-well; stronger effect = lower value; control for the full effect not named in the record; activity change, % (test concentration not listed); actives 0.49% (n = 340,000); AID 651724; in the data active means activity change below about -65%; inconclusive means about -30% to -65%; inactive means above about -30%; note: % is set by controls: 0 for no effect and ±100 for the full control effect; compound concentration not given in the record
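Homogeneous bead-based format: GST-tagged E1A captured on glutathione donor beads, His-tagged CtBP on nickel acceptor beads; compounds precede bead addition by 2 h at 37 °C.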
D2 potentiator – positive allosteric modulators of human D2 dopamine receptor | DiscoveRx D2 beta-arrestin cells, luminescence, 90 min; 100% = 57 uM dopamine signal | potentiation, % (concentration not given with the values) | actives 0.23% (n = 360,000); active = potentiation of 50% or more; inconclusive = 30% to 50%; inactive = 30% or less;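 note: compound concentration not given in the record; tested on top of an EC20 dose of dopamine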
Target sequence (P14416 whole entry, looked up): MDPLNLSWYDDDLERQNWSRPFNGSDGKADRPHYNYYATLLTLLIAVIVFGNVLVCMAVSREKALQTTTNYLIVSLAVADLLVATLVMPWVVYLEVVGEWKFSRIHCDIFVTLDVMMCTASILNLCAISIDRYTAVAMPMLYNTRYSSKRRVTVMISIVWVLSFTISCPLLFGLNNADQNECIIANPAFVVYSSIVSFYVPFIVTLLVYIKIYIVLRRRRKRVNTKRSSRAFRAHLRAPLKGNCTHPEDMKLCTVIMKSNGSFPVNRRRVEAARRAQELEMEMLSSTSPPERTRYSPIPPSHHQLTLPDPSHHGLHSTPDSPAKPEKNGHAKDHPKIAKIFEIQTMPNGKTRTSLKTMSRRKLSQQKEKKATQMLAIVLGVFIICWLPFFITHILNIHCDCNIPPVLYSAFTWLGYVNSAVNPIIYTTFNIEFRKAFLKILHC
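PathHunter beta-arrestin assay in DiscoveRx D2 cells. Compounds were added with an EC20 of dopamine (50 nM final) for 90 min at 37 deg C. Luminescence was read 1 h after detection reagent, with 57 uM dopamine as the EC100 control.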
TRPML1 ag – activates the human TRPML1 channel; activation, % (no concentration beside the values); TRPML1-expressing cells, Ca2+ dye fluorescence, FDSS; host cell line not named in the record; reference of the full effect not given here; Q9GZU1; AID 624414; actives 0.12% (n = 410,000); in the data active = activation above about 50%; inconclusive = about 30% to 50%; inactive = below about 30%; note: 0% is about no effect; the text of the record puts the active cut at 80%
Target sequence (Q9GZU1 whole entry, looked up): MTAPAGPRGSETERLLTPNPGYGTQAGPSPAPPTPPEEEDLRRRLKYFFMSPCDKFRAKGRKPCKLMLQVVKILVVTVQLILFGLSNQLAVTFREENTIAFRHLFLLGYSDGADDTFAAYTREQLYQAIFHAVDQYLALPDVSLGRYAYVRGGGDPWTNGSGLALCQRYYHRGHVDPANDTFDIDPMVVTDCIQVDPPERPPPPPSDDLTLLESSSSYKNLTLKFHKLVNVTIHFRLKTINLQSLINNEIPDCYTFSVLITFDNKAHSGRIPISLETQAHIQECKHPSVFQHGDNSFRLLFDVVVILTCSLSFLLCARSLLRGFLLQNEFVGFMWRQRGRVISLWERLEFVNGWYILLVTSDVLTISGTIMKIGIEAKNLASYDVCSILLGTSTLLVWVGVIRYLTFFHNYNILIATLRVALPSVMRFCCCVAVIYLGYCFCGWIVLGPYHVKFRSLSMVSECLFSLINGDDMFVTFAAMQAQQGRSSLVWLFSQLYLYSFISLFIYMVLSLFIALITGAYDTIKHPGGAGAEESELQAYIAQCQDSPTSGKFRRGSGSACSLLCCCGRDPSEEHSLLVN
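Kinetic FDSS Ca2+ read in Tet-induced TRPML1-DL cells (ABD Ca8 dye plus quencher, 45-90 min RT loading): baseline, then compound, then 110 s agonist window; EC80 agonist 54-4 at 4uM final added afterwards for a 110 s antagonist window.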
Six1-Eya2 blk – blocks human Six1 binding to Eya2; Q15475+O00167; AID 651725; AlphaScreen GST-Six1/His-Eya2 binding, biochemical; stronger effect = lower value; control for the full effect not named in the record; activity change, % (test concentration not listed); actives 0.56% (n = 360,000); in the data active = activity change below about -65%; inconclusive = about -30% to -65%; inactive = above about -30%; note: % is set by controls: 0 for no effect and ±100 for the full control effect; compound concentration not given in the record
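AlphaScreen luminescence read after one hour at 37 °C in darkness. Pin-transferred compounds met GST-Six1 and His-Eya2 protein (5X stock 250 nM/500 nM) plus glutathione donor and Ni-chelate acceptor beads (5X, 50 ug/mL).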
TRPV1 potentiator – human TRPV1 potentiation; Q8NER1; TRPV1-expressing cells, Fluo-8 calcium influx, capsaicin EC20 potentiation; host cell line not named in the record; control for the full effect not named in the record; potentiation, % at 8.33 µM; actives 0.02% (n = 320,000); AID 540277; active means potentiation above 80%; inconclusive means 30% to 80%; inactive means below 30%; note: 0% is about no effect
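Fluo-8 calcium influx in TRPV1-expressing cells, kinetic read (ex 480/em 520 nm). Compound added and read 3 min for agonist activity, followed by capsaicin at EC20 final and 2 min further read for enhancement.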
TRPML1 inh – blocks the human TRPML1 channel. Q9GZU1. TRPML1-inducible cells, Ca2+ dye fluorescence, FDSS; stronger effect = lower value; inhibition of EC80 agonist-evoked calcium signal. activity change, negative = inhibition, % (concentration not given with the values). actives 0.02% (n = 390,000). AID 624415; in the data active means activity change below about -50%; inconclusive means about -30% to -50%; inactive means above about -30%;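 note: stimulus is agonist 54-4 at its EC80 concentration; % is set by controls: 0 for no effect and ±100 for the full control effect; compound concentration not given in the record; the text of the record puts the active cut at -80%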
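Calcium fluorescence in TRPML1-DL cells induced overnight with Tet: a 110 s read after compound pin addition, then a 110 s antagonist read after challenge with 54-4 at 4 uM final (EC80).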
The depositor's hits bear a star; & = joins results of further samples.

Preview (4 entries):
Results for CC(C)(C)OC(=O)NC(Cc1ccccc1)C(=O)O (stereo unspecified) ?
CtBP-E1A inh: 5; D2 potentiator: -4; Six1-Eya2 blk: 0; TRPV1 potentiator: -4

What do the screens show for `CC[C@H](C)[C@@H](C(=O)NCCCCCCCCCCC(=O)N1CCNCC1)n1cc(CCCCN=C(N)N)nn1`?
CtBP-E1A inh: 3; D2 potentiator: -8; TRPML1 ag: 0.9; Six1-Eya2 blk: -1; TRPV1 potentiator: -7; TRPML1 inh: -9

Results for CC12CC3CC(C)(C1)CC(C(=O)NCc1ccco1)(C3)C2 ?
CtBP-E1A inh: 3; D2 potentiator: -9; TRPML1 ag: 1.8; Six1-Eya2 blk: 3; TRPV1 potentiator: -24; TRPML1 inh: 0

What do the screens show for `c1ccc(-n2nnnc2N2CCOCC2)cc1`?
CtBP-E1A inh: -3; D2 potentiator: 0; TRPML1 ag: 0.0; Six1-Eya2 blk: 0; TRPV1 potentiator: 0; TRPML1 inh: -7

The listing, previewed entries included:
Results for CC(C)(C)OC(=O)NC(Cc1ccccc1)C(=O)O (stereo unspecified) ?
CtBP-E1A inh: 5; D2 potentiator: -4; Six1-Eya2 blk: 0; TRPV1 potentiator: -4

What do the screens show for `CC[C@H](C)[C@@H](C(=O)NCCCCCCCCCCC(=O)N1CCNCC1)n1cc(CCCCN=C(N)N)nn1`?
CtBP-E1A inh: 3; D2 potentiator: -8; TRPML1 ag: 0.9; Six1-Eya2 blk: -1; TRPV1 potentiator: -7; TRPML1 inh: -9

Results for CC12CC3CC(C)(C1)CC(C(=O)NCc1ccco1)(C3)C2 ?
CtBP-E1A inh: 3; D2 potentiator: -9; TRPML1 ag: 1.8; Six1-Eya2 blk: 3; TRPV1 potentiator: -24; TRPML1 inh: 0

What do the screens show for `c1ccc(-n2nnnc2N2CCOCC2)cc1`?
CtBP-E1A inh: -3; D2 potentiator: 0; TRPML1 ag: 0.0; Six1-Eya2 blk: 0; TRPV1 potentiator: 0; TRPML1 inh: -7

What do the screens show for `Oc1ccc(/C=N/Nc2ccc3ccccc3c2)c(O)c1`?
CtBP-E1A inh: 3; D2 potentiator: inconclusive; TRPML1 ag: -1.3; Six1-Eya2 blk: -4; TRPV1 potentiator: 3; TRPML1 inh: 16

What do the screens show for `COc1ccccc1NC(=O)c1ccc(S(=O)(=O)N2CCCC(C)C2)cc1` (stereo unspecified)?
CtBP-E1A inh: 0; D2 potentiator: -4; TRPML1 ag: 0.3; Six1-Eya2 blk: 13; TRPV1 potentiator: -4; TRPML1 inh: -28

Results for Nc1cc(=O)nc(SCc2ccccc2)n1Cc1ccco1 ?
CtBP-E1A inh: -5; D2 potentiator: -3; TRPML1 ag: 1.4; Six1-Eya2 blk: -6; TRPV1 potentiator: 6; TRPML1 inh: -17

How did COc1ccc(C2c3ccc(O)cc3Oc3ncn(CC(C)C)c(=N)c32)cc1 (stereo unspecified) do in these assays?
CtBP-E1A inh: -18; D2 potentiator: -1; TRPML1 ag: 1.1; Six1-Eya2 blk: 6; TRPV1 potentiator: -15; TRPML1 inh: -7

How did O=C(CNCc1cccs1)NC12CC3CC(CC(C3)C1)C2 do in these assays?
CtBP-E1A inh: 3; D2 potentiator: 9; TRPML1 ag: -0.2; Six1-Eya2 blk: 2; TRPV1 potentiator: -7; TRPML1 inh: 21

Results for CCOc1ccc(CCNC(=O)c2cccc(NC3=NC4CS(=O)(=O)CC4S3)c2)cc1OCC (stereo unspecified) ?
CtBP-E1A inh: -9; D2 potentiator: -3; TRPML1 ag: 0.5; Six1-Eya2 blk: -1; TRPV1 potentiator: 19; TRPML1 inh: 17

What do the screens show for `Cn1c(=O)cc(SCC(=O)NCC2COc3ccccc3O2)c2ccccc21` (stereo unspecified)?
CtBP-E1A inh: -4; D2 potentiator: -11; TRPML1 ag: 0.0; Six1-Eya2 blk: -5; TRPV1 potentiator: 18; TRPML1 inh: -10

What do the screens show for `O=C(NCCSc1c[nH]c2ccccc12)c1ccc(Br)o1`?
CtBP-E1A inh: -1; D2 potentiator: -6; TRPML1 ag: 1.7; Six1-Eya2 blk: -7; TRPV1 potentiator: -11; TRPML1 inh: 15

How did CCOc1ccc(S(=O)(=O)NCCC(=O)NC2CCCCC2)cc1 do in these assays?
CtBP-E1A inh: -19; D2 potentiator: -3; TRPML1 ag: -0.4; Six1-Eya2 blk: 10; TRPV1 potentiator: 2; TRPML1 inh: -15

Results for Cc1ccc(/C=N/N2CCN(c3ccccc3)CC2)cc1 ?
CtBP-E1A inh: -2; D2 potentiator: 1; TRPML1 ag: 0.2; Six1-Eya2 blk: -1; TRPV1 potentiator: 0; TRPML1 inh: 7

Results for CCCCN(C(=O)C1CCN(C(=O)c2ccccc2C)CC1)c1c(N)n(CCCC)c(=O)[nH]c1=O ?
CtBP-E1A inh: 7; D2 potentiator: -4; TRPML1 ag: -0.5; Six1-Eya2 blk: 5; TRPV1 potentiator: 3; TRPML1 inh: 7

How did O=C(/C=C/c1ccco1)N1CCCC(c2ccccc2)C1 (stereo unspecified) do in these assays?
D2 potentiator: 3; TRPML1 ag: 0.5; Six1-Eya2 blk: -24; TRPV1 potentiator: -16; TRPML1 inh: -9

What do the screens show for `CCCCCCN1C[C@H](n2cc(C3CC3)nn2)[C@@H](O)C[C@@H]1c1ccc(OC)cc1`?
CtBP-E1A inh: -17; D2 potentiator: 3; TRPML1 ag: 0.8; Six1-Eya2 blk: -4; TRPML1 inh: 69

What do the screens show for `CCN1CCN(CC(=O)c2c[nH]c3ccccc23)CC1`?
CtBP-E1A inh: -4; D2 potentiator: -27; TRPML1 ag: 0.0; Six1-Eya2 blk: 1; TRPV1 potentiator: -5; TRPML1 inh: 4

Results for Cc1noc(NC(=O)c2ccccc2Cl)c1C#N ?
CtBP-E1A inh: 2; D2 potentiator: 18; TRPML1 ag: -0.8; Six1-Eya2 blk: 6; TRPV1 potentiator: 3; TRPML1 inh: -11

Results for CC(C)Cc1nn2c(=O)cc(CSCC(=O)Nc3ccccc3F)nc2s1 ?
CtBP-E1A inh: 2; D2 potentiator: -10; TRPML1 ag: 0.4; Six1-Eya2 blk: 2; TRPV1 potentiator: -2; TRPML1 inh: -2

How did CN(C)c1ccc(Sc2ccc3nc(N)nc(N)c3c2)cc1 do in these assays?
CtBP-E1A inh: -9; D2 potentiator: -7; TRPML1 ag: 2.8; Six1-Eya2 blk: inconclusive; TRPML1 inh: 14

Results for CCN(CC)C1=NC=CC(c2ccccc2)=CC1C (stereo unspecified) ?
CtBP-E1A inh: 15; D2 potentiator: -18; TRPML1 ag: -0.5; Six1-Eya2 blk: 0; TRPV1 potentiator: -10; TRPML1 inh: -11

Results for COc1cc(NC(=S)NCc2ccc(S(N)(=O)=O)cc2)c(OC)cc1Cl ?
CtBP-E1A inh: 0; D2 potentiator: -21; TRPML1 ag: 2.0; Six1-Eya2 blk: 1; TRPV1 potentiator: -9; TRPML1 inh: 30

Results for Cc1nc(NCCN2CCOCC2)c2nnn(Cc3ccccc3Cl)c2n1 ?
CtBP-E1A inh: 6; D2 potentiator: -2; TRPML1 ag: 0.8; Six1-Eya2 blk: -3; TRPV1 potentiator: -16; TRPML1 inh: -7

What do the screens show for `O=C(NC(=S)Nc1ccc2c(c1)OCCO2)c1cccc2ccccc12`?
CtBP-E1A inh: -17; D2 potentiator: 0; TRPML1 ag: 2.9; Six1-Eya2 blk: -17; TRPV1 potentiator: 14; TRPML1 inh: -7

What do the screens show for `CCOC(=O)Cc1csc(NC(=O)COC(=O)/C=C/c2ccc(OC)cc2)n1`?
CtBP-E1A inh: -26; D2 potentiator: -4; TRPML1 ag: 0.5; Six1-Eya2 blk: -5; TRPML1 inh: 10

How did CSc1ncc(C(=O)Nc2ccc(Br)cn2)c(C)n1 do in these assays?
CtBP-E1A inh: -6; D2 potentiator: -16; TRPML1 ag: 1.0; Six1-Eya2 blk: -10; TRPV1 potentiator: -14; TRPML1 inh: 8

How did COc1ccc2cc(CN(CC3CCCO3)C(=S)Nc3ccccc3)c(=O)[nH]c2c1 (stereo unspecified) do in these assays?
CtBP-E1A inh: inconclusive; D2 potentiator: -2; TRPML1 ag: -0.6; Six1-Eya2 blk: inconclusive; TRPV1 potentiator: -6; TRPML1 inh: 4

Results for O=C(/C=C/c1ccccc1)NC(=S)N1CCSCC1 ?
CtBP-E1A inh: 1; D2 potentiator: -8; TRPML1 ag: -0.7; Six1-Eya2 blk: 6; TRPV1 potentiator: -4; TRPML1 inh: 7

Results for COC(=O)c1ccc(N2C(=O)C3CC(C)=C(C)CC3C2=O)cc1 (stereo unspecified) ?
CtBP-E1A inh: 4; D2 potentiator: -3; TRPML1 ag: 0.9; Six1-Eya2 blk: 9; TRPV1 potentiator: -2; TRPML1 inh: 18

How did Cc1ccc(C(=O)N2CCCc3ccccc32)c(Cl)c1 do in these assays?
CtBP-E1A inh: 2; D2 potentiator: -10; TRPML1 ag: 0.0; Six1-Eya2 blk: -2; TRPML1 inh: 22

Results for COc1ccc(CCNS(=O)(=O)c2cnc(Cl)c(Br)c2)cc1OC ?
D2 potentiator: -11; TRPML1 ag: -0.1; Six1-Eya2 blk: -10; TRPV1 potentiator: -21; TRPML1 inh: 23

How did Cc1ccc(OCC(=O)N/N=C/c2ccncc2)cc1 do in these assays?
CtBP-E1A inh: 2; D2 potentiator: -10; TRPML1 ag: -0.4; Six1-Eya2 blk: 0; TRPML1 inh: -8

Results for COc1cc(C)nc(Oc2ccc(=O)[nH]n2)n1 ?
CtBP-E1A inh: 3; D2 potentiator: -4; TRPML1 ag: 0.7; Six1-Eya2 blk: 9; TRPV1 potentiator: 2; TRPML1 inh: 42

What do the screens show for `COC(=O)C(NC(C)=O)(Nc1ccccn1)C(F)(F)F` (stereo unspecified)?
CtBP-E1A inh: -4; D2 potentiator: -9; TRPML1 ag: -0.3; Six1-Eya2 blk: 6; TRPV1 potentiator: -2; TRPML1 inh: -1

What do the screens show for `COC(=O)c1cccc(NC(=O)C2CCCN2C(=O)c2cccs2)c1` (stereo unspecified)?
CtBP-E1A inh: -17; D2 potentiator: 2; TRPML1 ag: 0.6; Six1-Eya2 blk: 4; TRPV1 potentiator: 1; TRPML1 inh: 6

How did Cc1ccccc1NC(=O)CCOc1ccccc1 do in these assays?
D2 potentiator: -5; TRPML1 ag: 1.3&1.2; Six1-Eya2 blk: 10; TRPV1 potentiator: -14; TRPML1 inh: -16&4

How did O=C(CSc1nnc(-c2ccccc2)n1-c1ccccc1)c1cccs1 do in these assays?
CtBP-E1A inh: 6; D2 potentiator: -2; TRPML1 ag: 1.3; Six1-Eya2 blk: 3; TRPV1 potentiator: -18; TRPML1 inh: 9

How did O=C(Cn1cnc2c(nnn2-c2cccc(Cl)c2)c1=O)N1CCOCC1 do in these assays?
CtBP-E1A inh: -17; D2 potentiator: -3; TRPML1 ag: 0.1; Six1-Eya2 blk: 0; TRPV1 potentiator: 7; TRPML1 inh: 8

What do the screens show for `Cc1ccc(O)c(NC(=O)C2=CC(c3cccs3)=NS(=O)(=O)N2C)c1`?
CtBP-E1A inh: -16; D2 potentiator: 4; TRPML1 ag: 0.0&0.5; Six1-Eya2 blk: -14; TRPV1 potentiator: -6; TRPML1 inh: 3&25
